Source: PubChem BioAssay (National Center for Advancing Translational Sciences (NCATS))
HSD17B inhib: HSD17B dehydrogenase inhibition; Q99714; Potency, µM (highest dose often 57.1 µM), for inactives: at the highest dose activity change, negative = inhibition, usual class: inhibitors; AID 893; recombinant HSD17B10, NADH fluorescence kinetic; many of its hits are not listed in these tables; 75,000 compounds, 7.6% hits; active means well fitted inhibition curve with a large enough effect; inconclusive means small, poorly fitted or top-dose-only effect; inactive means no such curve, though single readings can be large or run the other way;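 further: the protocol describes HADH2 (HSD17B10) and not the HSD17B4 of the title; nearly all actives have a fitted effect of over 70% in size; most hits overshoot -100% by far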
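Activity followed as NADH fluorescence increase (ex 360, em 450 nm) every 30 seconds for 4 min, using final 90 uM beta-hydroxybutyryl CoA and 1 mM NAD+. Recombinant His-tagged enzyme, 20 nM, pH 9.0 Tris buffer, 15 min compound preincubation.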
Starred values were filed as active, the others as inactive; ? = inconclusive; [ ] = another dose, or the depositor's remark. On the % scale 0 is the no-effect control and ±100 the full control effect; potency means the concentration at half of the fitted maximal effect. Some of the compounds tested. The share of hits here may be higher or lower than overall.

SMILES	HSD17B inhib
Nc1nc(C(=O)O)c(N=Nc2ccccc2)c(=O)[nH]1	4%[11.4 µM]
COc1cc(C(=O)N2CCC(n3cnc4cc(F)ccc43)CC2)cc(OC)c1OC	-10%
On1cnnc1-c1ccccc1	9%
Cc1ccc2[nH]c(=O)c(CN(Cc3ccc4c(c3)OCO4)Cc3nnnn3Cc3ccco3)cc2c1	?
c1ccc(COc2ccc(Oc3nc(N4CCCCC4)nc(N4CCOCC4)n3)nn2)cc1	-1%
CCOc1ccc2nc(NC(=O)c3ccc(S(=O)(=O)N4CCOCC4)cc3)sc2c1	328%[activator]
CC(=O)OC1c2c(ccc3ccc(=O)oc23)OC(C)(C)C1OC(=O)CC(C)C (stereo not drawn)	25µM*
CSc1nsc(NC(=O)Cc2ccccc2)n1	10%
Cc1ccc(C(=O)Nc2c(C(=O)N3CCOCC3)cnn2-c2ccccc2)cc1	1%
CN(c1ccccc1)c1ccc(/C=c2\s/c(=C(/C#N)C(=O)C(C)(C)C)n(Cc3ccco3)c2=O)cc1	-21%
O=C1OC(=O)c2cc([N+](=O)[O-])ccc21	-2%
Cc1ccc2cc(CN(Cc3ccc(F)cc3)Cc3nnnn3C3CCCC3)c(=O)[nH]c2c1	-6%
COc1cccc(NC(=O)N[C@@H](Cc2ccccc2)C(=O)O)c1	3%
Cc1noc(C)c1-c1cncnc1NCc1ccccc1	-5%
CC1Cc2ccccc2N1C1=NS(=O)(=O)c2ccccc21 (stereo not drawn)	4%
CC1=CC2(C#N)C3(N=C(N)C2(C#N)C(c2ccccc2)N1)OCCO3 (stereo not drawn)	?
CCCOc1ccc(C(=O)CCN2CCCCC2)cc1	-22%
CCc1ccc(NC(=O)CSc2nc3c(c(=O)n(C)c(=O)n3C)n2C)cc1	-7%
CS(=O)(=O)N1CCN(c2ccccc2NC(=O)c2ccc(-c3ccc(Cl)cc3Cl)o2)CC1	25µM*
Cc1ccc(-n2c(SCC(=O)Nc3ccc4c(c3)OCO4)nnc2-c2ccoc2C)cc1	-18%
CCOC(=O)OCC1OC(C#Cc2ccccc2)C=CC1Oc1cccc(N(C)C)c1 (stereo not drawn)	-13%[11.4 µM]
O=C(CC(C(=O)N1CCc2ccccc21)n1ccnc1)NCc1cccnc1 (stereo not drawn)	-2%
COc1ccc(N(Cc2cc3ccccc3[nH]c2=O)C(=O)C2CCCO2)cc1 (stereo not drawn)	6%
O=C(CSc1ccc(Cl)cc1)Nc1ccc(N2CCN(C(=O)c3ccco3)CC2)cc1	-8%
COc1cc(NC(=O)c2csc3c2CCCC3)ncn1	-14%

An excerpt from above in order of count of non-hydrogen atoms, rising:
SMILES	HSD17B inhib
On1cnnc1-c1ccccc1	9%
O=C1OC(=O)c2cc([N+](=O)[O-])ccc21	-2%
CSc1nsc(NC(=O)Cc2ccccc2)n1	10%
Nc1nc(C(=O)O)c(N=Nc2ccccc2)c(=O)[nH]1	4%[11.4 µM]
COc1cc(NC(=O)c2csc3c2CCCC3)ncn1	-14%
Cc1noc(C)c1-c1cncnc1NCc1ccccc1	-5%
COc1cccc(NC(=O)N[C@@H](Cc2ccccc2)C(=O)O)c1	3%
CC1=CC2(C#N)C3(N=C(N)C2(C#N)C(c2ccccc2)N1)OCCO3 (stereo not drawn)	?
CCc1ccc(NC(=O)CSc2nc3c(c(=O)n(C)c(=O)n3C)n2C)cc1	-7%
COc1ccc(N(Cc2cc3ccccc3[nH]c2=O)C(=O)C2CCCO2)cc1 (stereo not drawn)	6%
Cc1ccc(C(=O)Nc2c(C(=O)N3CCOCC3)cnn2-c2ccccc2)cc1	1%
COc1cc(C(=O)N2CCC(n3cnc4cc(F)ccc43)CC2)cc(OC)c1OC	-10%
O=C(CSc1ccc(Cl)cc1)Nc1ccc(N2CCN(C(=O)c3ccco3)CC2)cc1	-8%
Cc1ccc(-n2c(SCC(=O)Nc3ccc4c(c3)OCO4)nnc2-c2ccoc2C)cc1	-18%
c1ccc(COc2ccc(Oc3nc(N4CCCCC4)nc(N4CCOCC4)n3)nn2)cc1	-1%
CN(c1ccccc1)c1ccc(/C=c2\s/c(=C(/C#N)C(=O)C(C)(C)C)n(Cc3ccco3)c2=O)cc1	-21%

(cont.)
SMILES	HSD17B inhib
CCN1CCN(C(=O)c2cc3c(-c4ccc(Cl)cc4)nn(C)c3s2)CC1	-22%
O=C(O)c1cccc(N2CCCCS2(=O)=O)c1	-1%
CC(C)C1Cc2[nH]c(=O)c(C(=O)O)cc2CO1 (stereo not drawn)	-6%
NC(=S)c1ccc[n+]([C@@H]2O[C@@H](COP(=O)([O-])OP(=O)(O)OC[C@@H]3O[C@@H](n4cnc5c(N)ncnc54)[C@@H](OP(=O)(O)O)[C@H]3O)[C@@H](O)[C@H]2O)c1	-16%
O=S1(=O)N=C2CCCN2C(c2ccc(F)cc2)N1 (stereo not drawn)	0%
C#CCCCCCCCCCCCC(O)CC(O)COC(C)=O (stereo not drawn)	-16%
CC(C)=CCc1c(O)cc(O)c2c1O[C@H](c1ccccc1)CC2=O	7%
N#CC1=C(N)N2C(=C(C#N)C13CCN(Cc1ccccc1)CC3)Nc1ccccc12	?
CCN(CC(=O)NC1CCS(=O)(=O)C1)C(=O)C(c1ccccc1)c1ccccc1 (stereo not drawn)	3%
Cc1ccc(-c2cc(-c3ccc(C)o3)nc(N)c2C#N)cc1	4%
CCN(CC)S(=O)(=O)c1ccc(NC2c3ccccc3C(=O)N2Cc2ccc3c(c2)OCO3)cc1 (stereo not drawn)	6%
O=C1c2ccccc2C(=O)N1c1cccc(-c2nc3ccccc3o2)c1	-2%
COC(=O)CN1C(=O)C(O)(CC(=O)c2ccc(C)cc2)c2cc(Br)ccc21 (stereo not drawn)	3%
COCCNC(C)C(=O)Nc1ccc(Br)cc1 (stereo not drawn)	14%
COc1cccc(Oc2coc3c(CN4CCOCC4)c(O)ccc3c2=O)c1	25µM*
Cc1cc(NC(=O)C2CC(c3ccc(F)cc3)=NO2)n(-c2ccccc2)n1 (stereo not drawn)	12%
Cc1csc2ncc(C(=O)NCc3ccc4c(c3)OCO4)c(=O)n12	-12%
COC(=O)/C=C/C1c2ccccc2C(OC)C1C (stereo not drawn)	7%[11.4 µM]
COc1ccc(Br)cc1CNC(=O)C1CCCN(c2nc3ccccc3o2)C1 (stereo not drawn)	-2%
Cn1c(=O)c2sccc2n2c(CCCC(=O)NCc3ccc4c(c3)OCO4)nnc12	-5%
COC(=O)c1ccc(COC(=O)c2[nH]c(C)c(C(C)=O)c2C)o1	-4%
COc1ccc2c(c1)OCC(Cc1ccc(OC)c(OC(C)=O)c1)C2=O (stereo not drawn)	3%
CCOc1ccc2oc(C(=O)OCC(=O)NC(=O)NC3CCCC3)c(C)c2c1	?
O=C(O)COc1ccccc1O	5%
COc1ccccc1N(CCC#N)C(=O)CSc1nc(-c2ccccc2)cn1N	-4%
Continued:
SMILES	HSD17B inhib
CCCOc1cc(CC(=O)NCc2ccco2)ccc1OC	0%
C(=N/Nc1nnc2c(n1)[nH]c1ccccc12)/c1cccnc1	-1%[11.4 µM]
COc1cccc(OCCCCN2CCCCC2)c1	6%
CCn1c(SCCC#N)nnc1-c1ccncc1	0%
c1ccc(-c2nnc(-c3cccc(-c4nnc(-c5ccccc5)o4)c3)o2)cc1	2%
Cc1ccc(Cn2c(CN3CCOCC3)nc3c2c(=O)[nH]c(=O)n3C)cc1	0%
O=C(Nc1cccc(F)c1)c1cc(S(=O)(=O)N2CCC(C(=O)O)CC2)ccc1F	-2%
COc1ccc(-c2nc(CS(=O)CC(=O)NCC3CCCO3)c(C)o2)cc1 (stereo not drawn)	?
COc1cc2c(cc1OC)-c1cc(OCCN3CCOCC3)nc(=O)n1CC2	25µM*
Cc1cc(NS(=O)(=O)c2ccc(NC(=O)CCN3C(=O)c4ccccc4C3=O)cc2)no1	4%
COC(=O)c1ccc(C(=O)OC)c(NC(=O)CCc2ccc(C)o2)c1	-22%
O=S(=O)(O)c1nc2ccccc2n1CCOc1ccccc1	2%
NC(=O)NCC(N)C(=O)O (stereo not drawn)	-2%
CCCn1c(=N)n(CCOc2ccc(OC)cc2)c2ccccc21	8%
CCN(CC)c1nc(N)c2c(N)nc3c(c2c1C#N)CC(c1ccccc1)O3 (stereo not drawn)	32µM*
O=C(CSc1nnc(-c2ccco2)n1-c1ccccc1)NCCc1ccccc1	-6%
COc1ccc(N2C(N)=C(C#N)C(c3cccnc3)C3=C2CC(C)(C)CC3=O)cc1 (stereo not drawn)	-7%
O=C(Nc1ccc(Cl)cc1)Nc1ccccc1C(=O)NCc1ccco1	?
COC(=O)CCC(=O)OC	2%
CCOCC(O)CS(=O)(=O)c1ccccn1 (stereo not drawn)	-3%
COc1ccc(C(=O)/C=C/Nc2c(C)n(C)n(-c3ccccc3)c2=O)cc1OC	-1%
O=C(c1ccco1)N1CCn2c1nc1ccccc12	-1%
Cc1cc(C)nc(NC(=O)NS(=O)(=O)N2CCCCCC2)n1	0%
CCC(C)=O	2%
CC(=O)Cc1nsc(NC(=O)c2csc3c2CCCC3)n1	-11%
Additional entries follow.
SMILES	HSD17B inhib
CN(C)/C=N/c1cc(=O)[nH]c(=O)n1Cc1ccccc1	-7%
CCn1c(SCC(=O)NCC2CCCO2)nnc1-c1c[nH]c2ccccc12 (stereo not drawn)	3%
CC(C)CCOC(=O)C1[C@H]2C(=O)N(Cc3cccs3)C[C@]23C=C[C@H]1O3 (stereo partly drawn)	13%
CC(=O)NC1CC2CCCC(C1)N2S(=O)(=O)c1ccccc1 (stereo not drawn)	6%
O=C1CCCc2nc3nc4ccccc4n3cc21	-3%
Cc1cccc(C)c1[N+](=O)[O-]	-2%
O=C(O)c1ccccc1C(=O)NCC(O)COCC1CC=CCC1 (stereo not drawn)	-1%
CCOc1ccc(NS(=O)(=O)c2ccc3c(c2)oc(=O)n3C)cc1	2%
CC(C)c1cc(C(=O)O)on1	3%
N#Cc1nc(-c2ccco2)oc1N1CCc2ccccc2C1	25µM*
Nc1nc(SCC(=O)OCc2ccccc2)[nH]c(=O)c1NC(=O)c1ccco1	11%
CCOc1cc(C2C(C(=O)c3ccccc3)=C(C(=O)OC)Nc3nnnn32)ccc1O (stereo not drawn)	-3%
Cc1ccc(-n2c(N)c(C(=O)N3CCOCC3)sc2=S)cc1	?
COc1ccc(N/C(=N\c2nc(C)cc(C)n2)NC(C)=O)cc1OC	2%
CCOC(=O)CSc1nc2ccccc2c(=O)n1CC1CCC(C(=O)NCc2ccco2)CC1 (stereo not drawn)	0%
N#Cc1ccc(CSc2nnc(-c3cccs3)n2-c2ccccc2)cc1	-1%
COc1ccc(C)cc1S(=O)(=O)NC1CCCCC1	-6%
Cc1cc(C)c(C#N)c(Nc2ccccc2Cl)n1	?
COc1ccc(N2CCN(Cc3cc(=O)oc4cc5c(cc34)CCCC5)CC2)cc1	12%
C=CCNc1nc(NCc2ccco2)nc(OCC)n1	-16%
CCOC(=O)c1c(NC(=O)c2cccs2)sc2c1CC(C)(C)OC2	32µM*
Cc1cccc2nc(Cn3c(=O)n(CCCC(=O)NCc4ccco4)c(=O)c4ccccc43)cc(=O)n12	-27%
O=C(OCn1nnc2ccccc2c1=O)c1cn(-c2ccccc2)nc1-c1cccnc1	3%
CCOC(=O)C1CCCN(C(=O)Cc2ccc(OC)c(OC)c2)C1 (stereo not drawn)	-1%
O=C(Oc1ccccc1)N1CCC[C@@]2(CCN(c3ccccc3)C2)C1	-10%
(cont.)
SMILES	HSD17B inhib
O=C(/C=C\C=C/c1ccc2c(c1)OCO2)N1CCCCC1	?
CC1CCN(Cc2c(C#N)c3ccccc3n2C)CC1	?
COc1ccccc1N1CCN(S(=O)(=O)c2c(C)ccc3nsnc23)CC1	-1%
O=C(O)c1n[nH]c2c1CCCCC2	5%
Nc1nc2n(n1)C(c1cccc(Br)c1)CC(c1ccccc1)N2 (stereo not drawn)	-8%
CCOC(=O)N1CCC(N2C(=O)c3ccc(C(=O)O)cc3C2=O)CC1	-1%
C=CCn1c(N)c(C(=O)N2CCOCC2)sc1=S	-12%
CN(CC(=O)Nc1ccc(Cl)cc1)S(=O)(=O)c1cccc2cccnc12	-8%
COCCNC(=O)C(c1ccc(F)cc1)N(CCOC)C(=O)CCC(=O)Nc1nccs1 (stereo not drawn)	-5%
CCOc1ccc(NC(=O)NC2CCOC(C)(C)C2)cc1 (stereo not drawn)	-8%
O=C(CSc1nc2c(c(=O)n1-c1ccc(Cl)cc1)SCC2)N1CCCC1	0%
COc1ccc(CCNC(=O)c2cc(-c3ccccc3OC)on2)cc1OC	?
Cc1noc(NC(=O)Nc2ccccc2F)c1C#N	9%[11.4 µM]
CC(=O)N1CCC2(CC1)CN(c1ccccc1)C2	0%
COc1c(Br)cc(Br)cc1C(=O)O	10%
COc1ccc(OC)c(NC(=O)Cn2c(=O)oc3ccccc32)c1	4%
COc1ccc2cc(C(c3nnnn3C3CCCC3)N3CCc4ccccc4C3)c(=O)[nH]c2c1 (stereo not drawn)	?
COC(=O)c1ccc(C2C(C(=O)Nc3ccc(C)cc3C)=C(C)Nc3ncnn32)cc1 (stereo not drawn)	-1%
COc1cccc(-c2cc(NCc3cccc(C)c3)ncn2)c1	-19%
Cc1ccc(NC(C(N)=O)c2c(C)[nH]c(=O)[nH]c2=O)cc1 (stereo not drawn)	1%
Cc1cc(NC(=O)c2cccc(C(=O)Nc3cc(C)on3)n2)no1	-3%
